Cruzain inh noDet: inhibitors of Trypanosoma cruzi cruzain without detergent; P25779; purified cruzain, Z-FR-AMC fluorescence, no detergent; Potency, µM, inactives show max response, negative = inhibition, hits mostly inhibitors; 200,000 tested, 2.3% active; AID 1476;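 also: plate controls were enzyme without inhibitor for no effect and buffer without enzyme for full effect; nearly all actives have a fitted effect of over 40% in size; top concentration of the series not given in the record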
Target sequence (P25779 123-467 limits assumed): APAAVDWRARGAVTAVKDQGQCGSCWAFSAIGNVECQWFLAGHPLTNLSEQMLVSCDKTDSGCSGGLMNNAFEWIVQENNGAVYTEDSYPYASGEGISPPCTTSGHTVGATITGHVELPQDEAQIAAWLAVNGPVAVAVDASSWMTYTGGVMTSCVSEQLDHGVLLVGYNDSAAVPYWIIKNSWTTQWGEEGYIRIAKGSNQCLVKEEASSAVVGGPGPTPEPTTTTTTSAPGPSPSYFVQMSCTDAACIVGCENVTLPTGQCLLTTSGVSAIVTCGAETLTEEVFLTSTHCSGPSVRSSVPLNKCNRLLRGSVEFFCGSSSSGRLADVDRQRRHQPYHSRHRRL
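Detergent-free condition (0.00005% Triton X-100) in acetate buffer pH 5.5 with DTT. 1.5 nM enzyme and compound were pre-mixed 15 min, then 2 uM Z-FR-AMC substrate added; reaction progress from fluorescence change between first and third reads (60 s).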
MARV entry inh: Marburg virus entry inhibition | 300,000 tested, 1.8% active | Marburg virus pseudotyped entry inhibition, cell reporter; control for the full effect not named in the record; about a third of the inactives were read at about 46 µM | Potency, µM (titrated, usually from 37.8 µM), for inactives: at the top dose activity change, negative = inhibition, actives largely listed as inhibitors; active = well fitted inhibition curve with a large enough effect; inconclusive = small, poorly fitted or top-dose-only effect, or effect the other way; inactive = flat fitted curve, though single readings scatter; tested in HEK293 cells; about a fifth of its hits are not listed in these tables; also: % is scaled to controls: 0 for no effect and ±100 for the full control effect; luciferase read-out
2A StopGo: lowers the luciferase signal of an FMDV 2A StopGo reporter; human cells with a luciferase reporter of 2A StopGo recoding; control for the full effect not named in the record; Potency, µM (highest dose often 57.9 µM), without a hit: top-dose signal change, negative = less light; 410,000 tested, 1.2% active; active = well fitted falling curve with a large enough effect; inconclusive = small, poorly fitted or top-dose-only effect; inactive = no such curve, though single readings can be large or run the other way; tested in HEK293T cells; also: % is scaled to controls: 0 for no effect and ±100 for the full control effect; nearly all actives have a fitted effect of over 45% in size; luciferase light after 4 h
NS1 inh: blocks influenza NS1 protein function | S. cerevisiae slowed by influenza A NS1, growth recovery by OD600 | Potency, µM (doses to about 46.1 µM), for the others: at the top dose activity, positive = more growth | 270,000 tested, 0.4% active | AID 2326; active means well fitted rising curve with a large enough effect; inconclusive means small, poorly fitted or top-dose-only effect; inactive means no such curve, though single readings can be large or run the other way; also: nearly all actives have a fitted effect of over 50% in size
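Growth recovery, yeast-based: influenza A NS1 expressed in S. cerevisiae causes slow growth, and suppressors are detected by OD600. The parent strain without NS1 is used as positive control.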
Cruzain Triton: cruzain (T. cruzi) inhibition with detergent. P25779. Potency, µM, for the others: max response, negative = inhibition, hits mostly inhibitors. purified cruzain, Z-FR-AMC fluorescence, 0.01% Triton. 200,000 tested, 0.43% active;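 also: plate controls were neutral wells for no effect and buffer without enzyme for full effect; nearly all actives have a fitted effect of over 40% in size; top concentration of the series not given in the record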
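Sodium acetate buffer (100 mM, pH 5.5) containing 5 mM DTT and 0.01% Triton X-100 hosted 1.5 nM cruzain and test compound for 15 min at room temperature. Cleavage of 2 uM Z-FR-AMC was then tracked by fluorescence.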
SARS PLP yeast: blocks SARS-CoV papain-like protease in a yeast assay; S. cerevisiae expressing SARS-CoV PLpro, growth rescue; control for the full effect not named in the record; Potency, µM (top dose mostly 32.9 µM), for the others: top-dose activity, positive = growth rescue; 330,000 tested, 0.19% active; AID 485353; active means well fitted rising curve with a large enough effect; inconclusive means small, poorly fitted or top-dose-only effect; inactive means no such curve, though single readings can be large or run the other way; also: 0% is about no effect; nearly all actives have a fitted effect of over 55% in size; growth read by luminescence after 48 h
RE007 growth inh: less growth of the S. pombe RE007 Vpr strain. AID 651644. 360,000 tested, 0.21% active. S. pombe RE007 Vpr strain, BacTiter-Glo ATP luminescence, 24 h; control for the full effect not named in the record. Potency, µM (titrated, usually from 92.2 µM), inactives show top-dose activity change, negative = less growth; active = well fitted falling curve with a large enough effect; inconclusive = small, poorly fitted or top-dose-only effect; inactive = no such curve, though single readings can be large or run the other way;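 also: % is scaled to controls: 0 for no effect and ±100 for the full control effect; nearly all actives have a fitted effect of over 50% in size; the assay follows cell death caused by Vpr and the record does not say whether a fall means rescue or toxicity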
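Fission yeast RE007 carrying one integrated HIV-1 vpr copy, seeded at OD 0.01 in PMG+AL medium with 23 nL pinned compound. Grown 24 h at 30 degrees; viability read by BacTiter-Glo luminescence after 5 min.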
Lassa entry inh: inhibitors of Lassa virus binding or cell entry; 300,000 tested, 1.2% active; Lassa virus pseudotype entry inhibition, cell reporter; control for the full effect not named in the record; Potency, µM (doses to about 37.9 µM), without a hit: top-dose activity change, negative = inhibition, most hits filed as inhibitors; active means well fitted inhibition curve with a large enough effect; inconclusive means small, poorly fitted or top-dose-only effect, or effect the other way; inactive means flat fitted curve, though single readings scatter; tested in HEK293 cells; also: % is scaled to controls: 0 for no effect and ±100 for the full control effect; nearly all actives have a fitted effect of over 50% in size; luciferase read-out
Numbers without * were called inactive; ? = inconclusive; . = not tested or not shown; [ ] = dose if it differs, or a comment. Unless noted, calls follow the shape of the dose curve; as a rule, active = well fitted curve in the direction sought with a large enough effect; inconclusive = small, poorly fitted or top-dose-only effect, or another doubt; inactive = no such curve, though single readings can be large; an effect the other way counts as inactive or inconclusive. Potency is read from the fitted curve at half-maximal effect. An unsorted share of the library. About 4.6% of those tested had a hit in this group.

1	CCc1ccc(NC(=O)c2cc(-c3ccco3)on2)cc1
2	Cc1cc(C)nc(SCCCNCc2ccccc2)n1
3	O=C(CNc1cccc([N+](=O)[O-])c1)N1CCN(S(=O)(=O)c2ccc(Cl)cc2)CC1
4	COCc1cc(=O)[nH]c(N2CCN(C(=O)c3ccco3)CC2)n1
5	Cc1nn(Cc2ccccc2Cl)c2sc(C(=O)Nc3nccs3)cc12
6	COc1ccc(CCNc2oc(COc3ccccc3Cl)nc2C#N)cc1OC

Assay by compound,1,2,3,4,5,6
Cruzain inh noDet,-26%,.,.,.,-5%,24%
MARV entry inh,?,.,-9%,.,-12%,.
2A StopGo,4%,-21%,-20%,-1%,-7%,20µM*
NS1 inh,-3%,-13%,.,10%,23%,-67%
Cruzain Triton,-4.1%,.,.,.,-3.8%,-12%
SARS PLP yeast,6%,18%,-1%,2%,8%,0%
RE007 growth inh,2%,-13%,-6%,24%,-3%,-6%
Lassa entry inh,-6%,.,-11%,.,0%,.

3 structures already listed, sorted by molecular weight, rising.
2	Cc1cc(C)nc(SCCCNCc2ccccc2)n1
5	Cc1nn(Cc2ccccc2Cl)c2sc(C(=O)Nc3nccs3)cc12
6	COc1ccc(CCNc2oc(COc3ccccc3Cl)nc2C#N)cc1OC

Assay by compound,2,5,6
Cruzain inh noDet,.,-5%,24%
MARV entry inh,.,-12%,.
2A StopGo,-21%,-7%,20µM*
NS1 inh,-13%,23%,-67%
Cruzain Triton,.,-3.8%,-12%
SARS PLP yeast,18%,8%,0%
RE007 growth inh,-13%,-3%,-6%
Lassa entry inh,.,0%,.

Additional compounds.
7	COc1ccc(OC)c(CNC(=O)c2cc3cc4ccc(OC)cc4nc3o2)c1
8	COc1ccc(Nc2cc(C(=O)NC3CCC(C)CC3)c3ccccc3n2)cc1OC (stereo not drawn)
9	Cc1cc(C)cc(NC(=O)C(c2ccccc2)N2CCN(CC(=O)NC3CC3)CC2)c1 (stereo not drawn)
10	C=CCN(C(=O)c1csnn1)C(C(=O)NCc1ccccc1)c1ccccc1F (stereo not drawn)
11	C=CCn1c(SCC(=O)/C(C#N)=C(\C)N)nnc1C1CCCCC1
12	CCOc1ccc(/C=N/NC(=O)C2CC2)cc1OC

Assay by compound,7,8,9,10,11,12
Cruzain inh noDet,8%,-13%,.,.,0%,.
MARV entry inh,-5%[46.1 µM],7%[46.1 µM],?,6%[46.1 µM],22%,.
2A StopGo,-17%,26%,-9%,23%,-10%,-2%
NS1 inh,.,.,.,-4%,-3%,17%
Cruzain Triton,-1.5%,-4.3%,.,.,5.7%,.
SARS PLP yeast,.,.,3%,-2%,2%,4%
RE007 growth inh,.,.,-12%,-3%,17%,-11%
Lassa entry inh,-15%[46.1 µM],8%[46.1 µM],?,-25%[46.1 µM],?,.

13	C=CCn1c(SCCOC)nc2c1c(=O)[nH]c(=O)n2C
14	Brc1ccc(CN2CCSCC2)cc1
15	CCC1=[N+](CC(=O)c2ccc(C)cc2)CCn2c(C)ccc21
16	COC(=O)CSc1nnc(CNC(=O)c2ccc(OC)cc2OC)n1C
17	Cc1ccc(CNc2ncnc3c2cnn3-c2ccccc2)cc1
18	O=C(NCCC(=O)N(CCc1ccccc1)Cc1ccccc1)c1ccc(Br)cc1

Assay by compound,13,14,15,16,17,18
Cruzain inh noDet,1%,-9%,-3%,1%,25µM*,.
MARV entry inh,.,2%,-2%,0%,-13%,-13%
2A StopGo,?,7%,-23%,-16%,55%[activator],1%
NS1 inh,16%,-4%,0%,-9%,16%,.
Cruzain Triton,-1.1%,2.9%,-8.3%,4.4%,5.4%,.
SARS PLP yeast,2%,2%,0%,8%,3%,.
RE007 growth inh,19%,-7%,1%,-21%,-2%[3.69 µM],8%
Lassa entry inh,.,11%,0%,18%[14.3 µM],4%,-21%

Entries above that have a furan ring, fused or not:
1	CCc1ccc(NC(=O)c2cc(-c3ccco3)on2)cc1
4	COCc1cc(=O)[nH]c(N2CCN(C(=O)c3ccco3)CC2)n1
7	COc1ccc(OC)c(CNC(=O)c2cc3cc4ccc(OC)cc4nc3o2)c1

Assay by compound,1,4,7
Cruzain inh noDet,-26%,.,8%
MARV entry inh,?,.,-5%[46.1 µM]
2A StopGo,4%,-1%,-17%
NS1 inh,-3%,10%,.
Cruzain Triton,-4.1%,.,-1.5%
SARS PLP yeast,6%,2%,.
RE007 growth inh,2%,24%,.
Lassa entry inh,-6%,.,-15%[46.1 µM]

Remaining list, next part
19	CCN(C(=O)CCN1C(=O)/C(=C/c2ccccc2)SC1=S)C1CCS(=O)(=O)C1 (stereo not drawn)
20	O=C(c1cc(-c2ccccc2)nn1-c1ccccc1)N1CCN(S(=O)(=O)c2c(F)cccc2F)CC1
21	Cc1ccc(OCC(O)Cn2nc(C)cc2C)cc1 (stereo not drawn)
22	CC(C)Cn1c2c(c(O)c(C(=O)Nc3ccc(F)cc3)c1=O)CCCC2

Assay by compound,19,20,21,22
Cruzain inh noDet,.,.,.,-12%
MARV entry inh,?,18%,.,16%
2A StopGo,-27%,0%,-5%,-12%
NS1 inh,-13%,.,-4%,-109%
Cruzain Triton,.,.,.,-2.5%
SARS PLP yeast,-2%,0%,-1%,1%
RE007 growth inh,-6%,7%,-4%,6%
Lassa entry inh,?,?,.,11%

From PubChem
